From PubChem
MITF inhib – inhibitors of MITF, primary screen, MITF inhibitor project, cell-based, luminescence. TRPM1 promoter luciferase, 24 h. inhibition, % (no concentration beside the values). 37,000 tested, 0.28% active. AID 2240, 2010;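 active = most replicates at 85% or more, or half of them and the mean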;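 note: human melanocyte line stably carrying TRPM1 promoter luciferase reporter; 0% = vehicle wells and 100% = a positive control; the first replicate is given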
PD-1 reverse act – activators reversing PD-1 mediated T-cell inhibition, primary screen, luminescence, primary human CD4 T cells, PD-L1 beads | CellTiter-Glo 96 h | activation, % (test concentration not listed) | 29,000 tested, under 10 active;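 active = replicate mean of 50% or more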;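 note: 0% = median vehicle wells and 100% = positive control; 100 nL library stock added to about 50 µL; numbers are from one replicate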
Hedgehog inh – Hedgehog pathway signaling inhibitors, primary screen, luminescence, Shh-LIGHT2 cells, Gli-luciferase. 22,000 tested, 2.1% active. Shh-LIGHT2 Gli-luciferase reporter, 30 h. inhibition, % (concentration not given with the values);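 active = replicate mean of 65% or more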;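 note: pathway switched on by Shh-conditioned medium diluted 1 in 25 in low serum; 100 nL library stock added to about 40 µL; 0% = median of neutral wells and 100% = positive control level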
YB-1 expr inh – inhibitors of YB-1 gene expression, primary screen, cell-based, fluorescence | U2OS, qRT-PCR YB-1 vs CDIP delta delta Cp, 16 h; active compounds read high; zero = DMSO, each unit about twofold | delta delta Cp (YB-1 minus CDIP) (no concentration beside the values) | 30,000 tested, 0.37% active | AID 434959, 2010;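 active = delta delta Cp rounded down to an integer at or above 3, about 3 SD of DMSO wells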;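 note: higher means less YB-1 transcript or more CDIP transcript relative to DMSO; stock transfer was 100 nL into about 100 µL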
An asterisk follows results filed as active; / = not tested or not shown. Not all compounds are listed; rates above refer to the full screens.

No.	SMILES	MITF inhib	PD-1 reverse act	Hedgehog inh	YB-1 expr inh
1	C[C@@H]1CN([C@H](C)CO)C(=O)c2cc(NC(=O)Cc3cn(C)c4ccccc34)ccc2O[C@@H]1CN(C)Cc1ccccc1	9	0.4	/	-0.46
2	CCOC(=O)c1c(NC(=O)CSc2nnc(C)s2)sc2c1CCCCC2	19	-1.0	/	/
3	CS(=O)(=O)N(CC(=O)Nc1ccc(Br)cc1F)c1ccccc1Cl	-4	1.2	/	/
4	C/C(=C\CC[C@@H](C)[C@H]1CC(O)[C@@]2(C)C3CC[C@H]4C(C)(C)[C@@H](O[C@@H]5OC(COC6OC(CO)C(O)C(O)C6O)C(O)C(O)C5O)CC[C@@]45C[C@@]35CC(O)[C@]12C)C(=O)OC1OC(CO)C(O)C1O (some centres not stated)	3	-0.2	-7	-0.35
5	C[C@H]1CN([C@@H](C)CO)C(=O)c2cc(NS(C)(=O)=O)ccc2O[C@H]1CN(C)Cc1ccc(C(=O)Nc2ccccc2N)cc1	-22	-0.5	/	0.07
6	C[C@H](CO)N1C[C@H](C)[C@H](CN(C)Cc2ccccc2)Oc2ccc(NC(=O)Nc3ccc(F)cc3)cc2CC1=O	4	-3.2	1	-0.016
7	C[C@H]1CN([C@@H](C)CO)C(=O)Cc2cc(NC(=O)C3CC3)ccc2O[C@H]1CN(C)Cc1ccc(Oc2ccccc2)cc1	-7	0.1	-12	-0.23
8	C[C@@H]1CN([C@H](C)CO)C(=O)c2cc(NC(=O)CCC(F)(F)F)ccc2O[C@@H]1CN(C)Cc1ccc(-c2ccccc2)cc1	-7	-2.7	/	0.36
9	Cc1noc(C)c1NC(=O)Nc1ccc2c(c1)C(=O)N([C@H](C)CO)C[C@@H](C)[C@@H](CN(C)Cc1ccc(C(=O)O)cc1)O2	-2	0.5	-9	-0.055
10	COC(=O)C[C@H]1C(C)(C)[C@H](OC(C)=O)[C@]2(O)CC3=C4CC(=O)O[C@@H](c5ccoc5)[C@]4(C)CCC3[C@@]1(C)C2=O (some centres not stated)	-9	-1.0	14	8*
11	COc1ccc(CN(C)C[C@@H]2Oc3ccc(NC(=O)c4ccncc4)cc3CC(=O)N([C@H](C)CO)C[C@H]2C)cc1	-16	/	-14	0.094
12	Cc1noc(C)c1NC(=O)Nc1ccc2c(c1)C(=O)N([C@H](C)CO)C[C@H](C)[C@@H](CN(C)Cc1ccc(Cl)c(Cl)c1)OCCCC[C@@H](C)O2	4	/	10	6.1*
13	C[C@H]1CN([C@@H](C)CO)C(=O)c2cc(NS(=O)(=O)c3cn(C)cn3)ccc2O[C@@H]1CN(C)Cc1ccc(C(=O)Nc2ccccc2N)cc1	-6	0.9	/	0.086
14	COc1ccc(S(=O)(=O)N(C)C[C@H]2Oc3ccc(NC(=O)Cc4cn(C)c5ccccc45)cc3CC(=O)N([C@H](C)CO)C[C@H]2C)cc1	25	-1.6	-8	-0.067
15	C[C@@H]1CN([C@H](C)CO)C(=O)Cc2cc(NC(=O)CCC(F)(F)F)ccc2O[C@H]1CN(C)C(=O)NC1CCCCC1	-7	/	13	-0.065
16	Cc1cc(-c2ccccc2)nc(SCC(=O)Nc2ccc(OC(F)F)cc2)n1	13	0.7	/	/
17	C[C@@H]1CN([C@H](C)CO)C(=O)c2cccc(NC(=O)C3CCCCC3)c2O[C@H]1CN(C)S(C)(=O)=O	-2	-0.8	-23	0.21
18	CC(C)NC(=O)Nc1ccc2c(c1)C(=O)N([C@H](C)CO)C[C@@H](C)[C@@H](CN(C)C)O2	-14	0.6	/	-0.1
19	C[C@H](CO)N1C[C@H](C)[C@H](CN(C)Cc2ccncc2)Oc2c(NS(C)(=O)=O)cccc2C1=O	3	3.2	10	0.088
20	CC(C)(CCO[C@@H]1O[C@H](CO[C@@H]2OC[C@@H](O)[C@H](O)[C@H]2O)[C@@H](O)[C@H](O)[C@H]1O)C[C@@H]1C(C(=O)O)=CC[C@]2(C(=O)O)C1=CCC1[C@@]3(C)CC[C@H](O[C@@H]4O[C@H](CO[C@@H]5O[C@H](CO)[C@@H](O)[C@H](O)[C@H]5O)[C@@H](O)[C@H](O)[C@H]4O)C(C)(C)C3CC[C@]12C (some centres not stated)	/	/	106*	0.17
21	Cc1cc(C)c(NC(=O)CN(C)S(=O)(=O)c2ccc(F)cc2)c(C)c1	-8	0.3	/	/
22	Cc1noc(C)c1S(=O)(=O)Nc1ccc2c(c1)C(=O)N([C@H](C)CO)C[C@H](C)[C@@H](CN(C)Cc1ccc3c(c1)OCO3)O2	-1	-0.9	10	-0.29
23	C[C@@H]1CN([C@@H](C)CO)C(=O)c2cccc(NC(=O)c3ccc(-c4nccs4)cc3)c2O[C@H]1CN(C)C(=O)Nc1ccc(F)cc1	-3	1.4	-17	0.34
24	C[C@H](CO)N1C[C@H](C)[C@H](CN(C)Cc2ccc(Cl)c(Cl)c2)Oc2ccc(N(C)C)cc2CC1=O	-8	/	-53	0.23
25	O=C(CSc1nnc2c(n1)[nH]c1ccccc12)Nc1cccc(C(F)(F)F)c1	64	-13	/	/
26	COc1ccc(C)cc1NC(=O)NCCCN1CCN(c2ccccc2C)CC1	-28	-0.7	/	/
27	C[C@@H]1CN([C@H](C)CO)C(=O)c2cc(NC(=O)Cc3ccccc3)ccc2O[C@@H]1CN(C)S(=O)(=O)c1cccs1	2	-0.2	8	0.075
28	CN(CC(=O)Nc1ccc(C(N)=O)cc1)S(=O)(=O)c1ccc2ccccc2c1	13	0.6	/	/
29	C[C@@H]1CN([C@H](C)CO)C(=O)c2cccc(N(C)C)c2O[C@H]1CN(C)C(=O)Nc1ccc2c(c1)OCO2	-10	2.5	10	0.17
30	N#Cc1ccccc1CSc1nnc(-c2ccc([N+](=O)[O-])cc2)n1-c1ccccc1	7	-0.8	/	/
31	C[C@H]1CN([C@@H](C)CO)C(=O)Cc2cc(NC(=O)CCC(F)(F)F)ccc2O[C@@H]1CN(C)Cc1ccncc1	4	1.4	-13	0.32
32	C[C@H]1CN([C@@H](C)CO)C(=O)c2cccc(NC(=O)c3ccncc3)c2O[C@@H]1CN(C)C(=O)Nc1ccc(F)cc1	-8	0.5	-79	-1.1
33	C[C@H](CO)N1C[C@H](C)[C@@H](CN(C)C(=O)Nc2ccc(F)cc2)Oc2c(NC(=O)Nc3ccc(C(F)(F)F)cc3)cccc2C1=O	-4	/	6	0.2
34	O=C1C[C@@H](c2ccccc2)Oc2cc(O)cc(O)c21	-66	/	-8	0.61
35	Cc1ccc(S(=O)(=O)N(C)C[C@@H]2Oc3ccc(NS(=O)(=O)c4ccc(Cl)cc4)cc3C(=O)N([C@H](C)CO)C[C@H]2C)cc1	-4	-3.1	/	-0.95
36	CS(=O)(=O)N(CC(=O)Nc1cccc(Br)c1)c1ccc(F)c(Cl)c1	18	-6.3	/	/
37	O=C(CCn1cnc2ccccc2c1=O)Nc1ccc(S(=O)(=O)N2CCOCC2)cc1	-17	-0.2	/	/
38	C[C@@H]1CN([C@H](C)CO)C(=O)c2cc(NC(=O)c3ccncc3)ccc2O[C@H]1CN(C)C(=O)Nc1cccc2ccccc12	2	1.2	/	0.19
39	C[C@@H]1CCCCO[C@H](CN(C)C(=O)Nc2ccc(F)cc2)[C@@H](C)CN([C@H](C)CO)C(=O)c2cc(NC(=O)Nc3cccc4ccccc34)ccc2O1	-10	-1.9	-11	-0.3
40	COc1ccc(NC(=O)Nc2cccc3c2O[C@@H](CN(C)S(=O)(=O)c2cccs2)[C@@H](C)CN([C@H](C)CO)C3=O)cc1	-5	0.7	-3	-7.4e-05
41	C[C@@H]1CN([C@@H](C)CO)C(=O)Cc2cc(NS(=O)(=O)c3cn(C)cn3)ccc2O[C@@H]1CN(C)Cc1ccc(-c2ccccc2)cc1	-3	0.6	46	0.079
42	C[C@@H]1CCCCO[C@H](CN(C)C(=O)Nc2ccccc2)[C@@H](C)CN([C@H](C)CO)C(=O)c2cc(NC(=O)Cc3ccccc3)ccc2O1	-4	0.8	3	-0.13
43	CC(C)CC(Nc1ncnc2sc3c(c12)CCC3)C(=O)O (configuration not stated)	-6	0.6	-5	-0.11
44	Cc1ccc(NC(=O)C(C)N(c2ccccc2)S(C)(=O)=O)cc1C (configuration not stated)	0	0.8	/	/
45	C[C@H](CO)N1C[C@H](C)[C@H](CN(C)S(=O)(=O)c2ccc(Cl)cc2)Oc2c(NC(=O)c3cnccn3)cccc2C1=O	-26	0.9	52	0.079
46	C[C@H]1CN([C@@H](C)CO)C(=O)Cc2cc(NC(=O)Cn3cnnn3)ccc2O[C@@H]1CN(C)S(=O)(=O)c1ccc(Cl)cc1	-25	1.7	16	0.18
47	COc1ccc(NC(=O)N(C)C[C@H]2OCCCC[C@@H](C)Oc3ccc(NC(=O)Nc4cccc5ccccc45)cc3C(=O)N([C@H](C)CO)C[C@@H]2C)cc1	-15	/	0	-0.28
48	O=c1ccc(Oc2nc(N3CCCCC3)nc(N3CCOCC3)n2)n[nH]1	-1	0.7	/	/
49	Cc1ccc(S(=O)(=O)Nc2ccc3c(c2)C(=O)N([C@H](C)CO)C[C@H](C)[C@@H](CN(C)S(=O)(=O)c2ccc(F)cc2)O3)cc1	-6	2.1	/	-0.35
50	C[C@@H]1CN([C@H](C)CO)C(=O)c2cc(NS(=O)(=O)c3cccs3)ccc2O[C@H]1CN(C)CC1CCCCC1	1	/	-25	-0.19
51	C[C@H](CO)N1C[C@H](C)[C@H](CN(C)Cc2ccc(Cl)c(Cl)c2)Oc2ccc(NS(=O)(=O)c3cccs3)cc2CC1=O	0	0.6	26	-0.2
52	Cc1noc(C)c1S(=O)(=O)Nc1ccc2c(c1)C(=O)N([C@H](C)CO)C[C@@H](C)[C@H](CN(C)S(=O)(=O)c1cccs1)O2	3	-0.9	-19	0.13
53	CC(C)NC(=O)N(C)C[C@@H]1Oc2c(NC(=O)CCCCCC(=O)Nc3ccccc3N)cccc2C(=O)N([C@H](C)CO)C[C@@H]1C	0	2.6	/	0.14
54	COc1ccc(S(=O)(=O)Nc2ccc3c(c2)CC(=O)N([C@H](C)CO)C[C@@H](C)[C@@H](CN(C)C(=O)NC2CCCCC2)O3)cc1	-2	-0.4	-50	-0.28
55	CC(C)NC(=O)N(C)C[C@H]1Oc2ccc(NC(=O)Nc3ccc(F)cc3)cc2C(=O)N([C@H](C)CO)C[C@@H]1C	-4	0.4	-28	0.0097
56	O=C(CSc1n[nH]c(-c2ccncc2)n1)Nc1ccc(F)cc1	-4	0.7	/	/
57	COc1ccc(NC(=O)N(C)C[C@@H]2Oc3ccc(NC(=O)NC4CCCCC4)cc3CC(=O)N([C@H](C)CO)C[C@@H]2C)cc1	-11	0.5	-37	-0.27
58	COc1ccc(S(=O)(=O)Nc2cccc3c2O[C@@H](CN(C)Cc2ccc(C(=O)O)cc2)[C@H](C)CN([C@@H](C)CO)C3=O)cc1	-6	/	-20	-0.079
59	Cc1cc(Cl)ccc1NC(=O)COc1ccc(C(=O)Nc2cc(Cl)ccc2Cl)cc1	35	1.9	/	/
60	C[C@@H]1CN([C@@H](C)CO)C(=O)c2cccc(NC(=O)c3ccncc3)c2O[C@@H]1CN(C)S(=O)(=O)c1ccc(Cl)cc1	-37	1.0	12	0.69
61	COc1ccc(NC(=O)N(C)C[C@@H]2Oc3ccc(NC(=O)CCCCCC(=O)Nc4ccccc4N)cc3C(=O)N([C@H](C)CO)C[C@H]2C)cc1	-10	1.5	/	-0.015

Sorted by number of heavy atoms (smallest number first): 5 of the compounds above.
No.	SMILES	MITF inhib	PD-1 reverse act	Hedgehog inh	YB-1 expr inh
36	CS(=O)(=O)N(CC(=O)Nc1cccc(Br)c1)c1ccc(F)c(Cl)c1	18	-6.3	/	/
18	CC(C)NC(=O)Nc1ccc2c(c1)C(=O)N([C@H](C)CO)C[C@@H](C)[C@@H](CN(C)C)O2	-14	0.6	/	-0.1
37	O=C(CCn1cnc2ccccc2c1=O)Nc1ccc(S(=O)(=O)N2CCOCC2)cc1	-17	-0.2	/	/
17	C[C@@H]1CN([C@H](C)CO)C(=O)c2cccc(NC(=O)C3CCCCC3)c2O[C@H]1CN(C)S(C)(=O)=O	-2	-0.8	-23	0.21
4	C/C(=C\CC[C@@H](C)[C@H]1CC(O)[C@@]2(C)C3CC[C@H]4C(C)(C)[C@@H](O[C@@H]5OC(COC6OC(CO)C(O)C(O)C6O)C(O)C(O)C5O)CC[C@@]45C[C@@]35CC(O)[C@]12C)C(=O)OC1OC(CO)C(O)C1O (some centres not stated)	3	-0.2	-7	-0.35
